HMGR II inh: inhibitors of E. faecalis class II HMGR, primary screen, biochemical, Enterococcus faecalis | inhibition, % at 10 µM | hit rate 0.41% among 190,000 | purified E. faecalis HMGR, NADPH absorbance 340 nm kinetic | AID 1066, 2008 | HMG-CoA reductase (Enterococcus faecalis, mvaE);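 active = inhibition above a set limit, the median over all tested compounds plus 3 SD, cut at about 9.5% in these data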;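 note: enzyme runs in reverse so mevalonate oxidation gives rising NADPH absorbance; 0% = complete reaction with DMSO and 100% = background rate lacking mevalonate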
L major viab: Leishmania major promastigote growth inhibition, primary screen; Leishmania major promastigotes, resazurin fluorescence viability; inhibition, % at 10 µM; hit rate 9% among 200,000; AID 1063, 2008; in the data active = inhibition above about 50%;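 note: promastigotes grown with compound for 44 hours at 28 °C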
DTT redox prof: compounds producing H2O2 with reducing agent – biochemical, NIH compound library profiling, artefact control for MLSCN library redox annotation, primary screen. DTT-dependent redox cycling H2O2, phenol red/HRP absorbance; 100% = 100 µM peroxide control, 0% = buffer. activation, % at 10 µM. hit rate 0.03% among 200,000. AID 878, 2007;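 active = activation of at least 50% relative to the plate's high and low controls in the primary single-dose screen; inactive = activation below 50%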;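 note: compound incubated with DTT at 0.8 mM final as the reducing agent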
RAM network inh: inhibitors of the yeast RAM network, primary screen, dse1pr::URA3 reporter, 5-FOA selection. S. cerevisiae dse1pr::URA3 reporter, 5-FOA growth OD615, 2 d; analog-sensitive cbk1-as2 kinase mutant strain. inhibition, % at 50 µM. hit rate 1.8% among 190,000;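 active = inhibition above a set limit, 3 SD over mean compound inhibition, cut at about 8.4% in these data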;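 note: 0% = DMSO-only wells with no growth and 100% = 10 µM 1-NA-PP1 full growth; inhibition rescues growth on 5-FOA so higher OD means more RAM inhibition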
S1P3 antagonist: S1P3 receptor antagonists, primary screen, cell-based; Sphingosine 1-phosphate receptor 3 (Homo sapiens), Q99500; inhibition, % at 4.98 µM; CHO S1P3 NFAT-BLA reporter, FRET fluorescence, antagonist mode; hit rate 0.27% among 170,000;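 active = inhibition above the plate cutoff, the mean inhibition of test wells on that plate plus 3 SD, cut at about 28% in these data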;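 note: cells challenged with S1P at its EC80 of 0.8 µM; blue over green emission ratio from cleaved BLA substrate after 4 h stimulation; 0% = S1P-stimulated wells and 100% = unstimulated DMSO-only wells; some compounds past the cut are filed as inactive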
Target sequence (Q99500 whole entry, looked up): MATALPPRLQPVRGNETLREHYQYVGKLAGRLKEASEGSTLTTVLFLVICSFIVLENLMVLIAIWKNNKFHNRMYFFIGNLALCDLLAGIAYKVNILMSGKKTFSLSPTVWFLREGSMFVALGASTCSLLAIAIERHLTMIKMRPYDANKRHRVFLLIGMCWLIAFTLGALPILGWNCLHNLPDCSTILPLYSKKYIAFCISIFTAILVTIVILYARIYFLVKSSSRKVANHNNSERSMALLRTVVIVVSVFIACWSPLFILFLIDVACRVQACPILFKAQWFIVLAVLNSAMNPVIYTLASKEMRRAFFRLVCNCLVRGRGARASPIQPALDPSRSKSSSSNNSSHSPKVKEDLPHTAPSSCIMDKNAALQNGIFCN
TNAP inh no acc: human TNAP enzyme inhibitors, primary screen, biochemical, luminescent, no phosphate acceptor, uHTS | Alkaline phosphatase, tissue-nonspecific isozyme (Homo sapiens), P05186 | AID 1012, 2008 | inhibition, % at 20 µM | purified TNAP, CDP-star luminescence, 30 min | hit rate 0.26% among 200,000;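 active = tissue-nonspecific alkaline phosphatase inhibition above about 50% at 20 µM in the single-dose screen, limit read from the data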;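 note: 0% = DMSO negative control and 100% = EDTA positive control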
Target sequence (P05186 whole entry, looked up): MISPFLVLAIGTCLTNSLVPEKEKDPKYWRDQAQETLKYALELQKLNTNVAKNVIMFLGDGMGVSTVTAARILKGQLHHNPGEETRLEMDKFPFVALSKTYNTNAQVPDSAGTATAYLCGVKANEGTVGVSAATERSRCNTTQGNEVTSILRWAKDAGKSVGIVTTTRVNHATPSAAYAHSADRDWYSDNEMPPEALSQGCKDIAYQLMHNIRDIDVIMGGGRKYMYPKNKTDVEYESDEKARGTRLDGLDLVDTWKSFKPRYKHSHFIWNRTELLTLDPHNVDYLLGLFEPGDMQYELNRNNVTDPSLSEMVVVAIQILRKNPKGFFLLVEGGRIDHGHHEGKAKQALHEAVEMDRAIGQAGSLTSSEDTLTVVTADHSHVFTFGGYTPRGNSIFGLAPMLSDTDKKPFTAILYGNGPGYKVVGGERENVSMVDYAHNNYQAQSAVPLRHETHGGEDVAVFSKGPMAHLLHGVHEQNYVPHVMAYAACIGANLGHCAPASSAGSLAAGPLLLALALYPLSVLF
TNAP inh hi DEA: human TNAP enzyme inhibitors, primary screen, biochemical, luminescent, high phosphate acceptor level, uHTS. Alkaline phosphatase, tissue-nonspecific isozyme (Homo sapiens), P05186. inhibition, % at 20 µM. AID 1135, 2008. purified TNAP, CDP-star luminescence, 1 M DEA. hit rate 0.03% among 200,000;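 active = over 50% inhibition of tissue-nonspecific alkaline phosphatase at 20 µM in the single-dose screen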;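 note: plate controls were DMSO wells for no effect and EDTA-quenched wells as full inhibition for full effect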
Hsp70 activator: Hsp70 transcriptional activators, primary screen, cell-based, HeLa, Hsp70 promoter luciferase, luminescence, 10 µM; HeLa Hsp70 promoter luciferase reporter; scaled: vehicle 0, proteasome-inhibitor control 100%; activation, % at 10 µM; hit rate 0.04% among 200,000;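 active = activation above the mean across all tested compounds plus 3 SD, cutoff set per campaign, cut at about 5.5% in these data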;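 note: 100% = MG132 at 30 µM as the positive control and 0% = DMSO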
* hit, by the source's call; . = not tested or not shown; & = joins results of further samples.

no.	SMILES	HMGR II inh	L major viab	DTT redox prof	RAM network inh	S1P3 antagonist	TNAP inh no acc	TNAP inh hi DEA	Hsp70 activator
1	COc1cccc(NC(=O)N(C2CCCCC2)C(C)c2cccs2)c1 (stereo not drawn)	3	12	1.3	1.0	.	-10	-6	0.0
2	Cc1cccc(NC(=S)NC(=O)c2cc(-c3ccccc3)nc3ccccc23)c1	-3	11	-7.1	5.8	.	-8	-2	-0.1
3	O=C(NCCCN1CCCCCC1)C1CC(=O)N(C2CCCC2)C1 (stereo not drawn)	-3	10	2.0	1.3	-15	-6	-10	-0.5
4	O=S(=O)(Cc1ccc(Cl)cc1)c1ccccc1-c1nnc(-c2ccc(Cl)cc2)o1	-10	-3	2.7	5.4	.	-6	-3	0.0
5	COC(=O)Sc1nnc(-c2ccc(Br)cc2)o1	-6	-7	-0.5	-1.2	-5	-3	2	-0.1
6	CCCCNC(=O)C(CC)Sc1nc2sc(C(=O)OC)c(C)c2c(=O)n1N (stereo not drawn)	1	-5	-8.3	2.8	.	1	-4	0.2
7	CCc1ccc(OCCNC(=O)c2cc(SC)ccc2Cl)cc1	-8	-6	2.5	2.3	.	-7	-3	0.2
8	Cc1[nH]nc(-c2ccc(O)cc2O)c1-c1ccc(Cl)cc1	0	5	2.6	-0.9	41	-30	-5	-0.1
9	C=CCOC(=O)C1=C(C)NC(SC)=C(C#N)C1c1cccs1 (stereo not drawn)	0	9	-3.2	1.7	.	-9	-3	-0.2
10	COc1cccc(N(C(=O)Cn2nnc(-c3cccs3)n2)C(C(=O)NC2CCCCC2)c2ccncc2)c1 (stereo not drawn)	-3	-1	-2.4	1.5	.	9	1	0.0
11	CCOC(=O)c1c(C)[nH]c(C(=O)C(C)Sc2ccc(Cl)cc2)c1C (stereo not drawn)	6	3	1.4	12*	.	-3	2	-0.1
12	CCOc1ccc2c(=O)c(Oc3ccccc3)c(C)oc2c1	-3	3	57*	1.2	.	0	-4	0.0
13	O=C(OC1CCCCC1)c1ccc2c(c1)C1C=CCC1C(C(=O)O)N2 (stereo not drawn)	-1	-5	1.6	11*	-1	8	3	-0.1
14	O=C(Cc1ccccc1)NC(NCCc1ccccc1)C(Cl)(Cl)Cl (stereo not drawn)	-4	98*	1.9	-0.9	.	1	-1	-0.5
15	CC(=O)c1c(C)[nH]c(C(=O)N2CCc3ccccc3C2)c1C	-7	-3	1.5	0.4	9	-7	-1	-0.3
16	Cc1ccc(OCCn2c(CCNC(=O)C(C)C)nc3ccccc32)cc1	1	1	-3.9	0.9	.	-10	-4	-0.1
17	CCCOc1ccc2oc(=O)c3c(c2c1)CCCN3C(=O)CN1CCCC(C(=O)OCC)C1 (stereo not drawn)	-1	25	0.5	1.8	33	-6	-2	-0.3
18	Cc1c(NC(=O)C(C)OC(=O)[C@@H](NC(=O)c2ccccc2)C(C)C)c(=O)n(-c2ccccc2)n1C (stereo partly drawn)	-9	-4	-3.6	4.9	.	13	3	-0.5
19	COC(=O)c1ccc(COc2ccccc2/C=N/NS(=O)(=O)c2ccc(C)cc2)cc1	2	36	-4.0	3.9	.	-12	-4	0.4
20	CC(C)C(NS(=O)(=O)c1cccs1)C(=O)Nc1nc(C(C)(C)C)cs1 (stereo not drawn)	-3	12	-8.8	0.1	.	-6	-4	-0.3
21	Cc1ccc(S(=O)(=O)/N=C(\c2ccc(Cl)cc2)N2CCOCC2)cc1	-2	-5	3.3	1.5	.	-9	-4	-0.3
22	Cc1cc(C)cc(N(C(=O)c2csnn2)C(C(=O)NC(C)(C)C)c2cccs2)c1 (stereo not drawn)	1	-3	1.7	2.0	.	-5	3	-0.1
23	Cn1c(=O)c2c(nc(NCC3CCCO3)n2Cc2cccc(Br)c2)n(C)c1=O (stereo not drawn)	-2	5	1.6	1.4	.	-9	-4	0.0
24	CCCNC(=O)c1ccccc1NC(=O)COc1ccc(OC)cc1	-1	10	1.1	0.7	.	-11	-2	0.0
25	COC(CNC(=O)c1ccc(N2CCCC2=O)cc1)OC	2	12	-1.1	0.4	.	-9	-7	0.6
26	COC(=O)c1ccc(NC(=O)COc2ccc(C3C(C#N)=C(N)Oc4c3ccc3ccccc43)cc2OC)cc1 (stereo not drawn)	-6	95*	1.2	2.1	.	-10	-1	-0.1
27	Cc1cc(C)c2c(-n3cccc3)c(C(=O)NNS(=O)(=O)c3ccc(Cl)cc3)sc2n1	1	-4	-1.1	5.4	.	1	3	-0.1
28	CC1C/C(=N/O)C(C)CN1 (stereo not drawn)	2	-1	0.2	-0.7	.	-9	-4	-0.2
29	CC1(C)N=C(SCC(=O)Nc2ccccc2)C(c2ccc(Cl)cc2)=N1	2	29	0.0	0.0	.	-2	2	-0.3
30	Cc1ccc(/C=C/C(=O)Nc2cc(C)on2)cc1	-7	-4	2.5	3.7	.	3	-1	0.1
31	Cc1cc(C)n(-c2cc(N3CCN(C(=O)c4cccc(Br)c4)CC3)ccc2[N+](=O)[O-])n1	0	0	1.8	1.3	.	2	6	-0.5
32	Cc1ccc(/C=N/n2nnnc2N)cc1[N+](=O)[O-]	3	6	-4.2	1.2	.	-8	-3	0.1
33	CCN1CCN(C(=O)CS(=O)Cc2nc(-c3ccc(OC)cc3)oc2C)CC1 (stereo not drawn)	-6	-7	0.0	2.0	7	4	0	-0.1
34	COc1ccc(-c2c(C)n([O-])c3c([n+]2=O)CCCC3)cc1	3	-5	3.0	2.7	.	1	-2	-0.2
35	CC(Sc1nc2ccccc2s1)C(=O)N1CCOCC1 (stereo not drawn)	-7	-7	-1.0	2.8	.	-17	-8	-0.2
36	CCOC(=O)c1ccc(NC(=O)CCOc2ccc(OC)cc2)cc1	-1	-5	-0.2	2.5	.	-21	-4	-0.5
37	COC(=O)COc1ccc(Cl)cc1C1Nc2ccccc2C(=O)N1c1ccc(OC)cc1 (stereo not drawn)	-3	5	-3.8	5.6	.	-11	-6	0.0
38	COc1cc(NC(=O)c2ccco2)c(C(=O)O)cc1OC	-4	-4	-3.4	1.6	.	-7	2	-0.3
39	CCN(CC)CCOc1ccc2c(c1)C(=NO)c1cc(OCCN(CC)CC)ccc1-2	-4	100*	0.8	0.8	.	17	-5	0.1
40	C=CCNC(=O)c1onc(CSc2cc(C)cc(C)c2)c1C(=O)O	-4	-7	18	3.2	.	-4	4	-0.2
41	CC(=O)Nc1ccc(S(=O)(=O)NCC2CCC(C(=O)NCCC(C)C)CC2)cc1 (stereo not drawn)	-7	0	2.2	1.4	-6	-14	-10	-0.3
42	CCOC(=O)c1c[nH]c2c(C)cc(C)cc2c1=O	-2	-1	-7.4	3.0	.	-12	-7	0.3
43	CC(C)CNC(=S)NC1CC2CCC(C1)N2Cc1ccccc1 (stereo not drawn)	-4	88*	0.2	0.2	.	-2	-3	-0.2
44	CC(C)(C)c1ccc(C(=O)c2c[nH]c(C(=O)NCCCn3ccnc3)c2)cc1	-7	2	2.1	0.9	.	2	-3	0.3
45	Cc1cc(C)c2c(-n3cccc3)c(C(=O)NNS(=O)(=O)c3ccc(Br)cc3)sc2n1	0	-5	1.7	4.4	.	0	0	-0.3
46	CN1C(=O)CC(NNC(=O)c2ccccc2)C1=O (stereo not drawn)	-5	-5	-3.5	0.4	.	-9	-4	-0.2
47	C/C(CC(=O)Nc1cccc2c1CCCC2)=N\NC(=O)c1ccccc1N	-6	-1	1.9	-0.8	.	-4	0	-0.1
48	COC(=O)c1sccc1-c1ccc(/C=N/OCc2c(Cl)cccc2Cl)o1	0	4	-2.9	18*	.	-13	-5	0.0
49	O=C(CN(Cc1ccco1)C(=O)c1ccccc1)Nc1ccc(Cl)c(Cl)c1	-3	0	-7.0	2.3	.	-11	-8	-0.2
50	CCOC(=O)CC(=O)Nc1ccccc1C(=O)O	-1	-7	-0.8	-0.5	.	-9	1	-0.2

Single records, as listed above. Order of screens: HMGR II inh, L major viab, DTT redox prof, RAM network inh, S1P3 antagonist, TNAP inh no acc, TNAP inh hi DEA, Hsp70 activator
CC(C)(C)c1ccc(C(=O)c2c[nH]c(C(=O)NCCCn3ccnc3)c2)cc1 in the list: -7, 2, 2.1, 0.9, ., 2, -3, 0.3
COc1cc(NC(=O)c2ccco2)c(C(=O)O)cc1OC in the list: -4, -4, -3.4, 1.6, ., -7, 2, -0.3

Remaining list, next part:
no.	SMILES	HMGR II inh	L major viab	DTT redox prof	RAM network inh	S1P3 antagonist	TNAP inh no acc	TNAP inh hi DEA	Hsp70 activator
51	Cc1cc(C)c(C#N)c(SCC(=O)C(C)(C)C)n1	-1	77*	0.7	-0.3	.	-4	-11	-0.3
52	O=C(NC(NC(=S)Nc1ccccc1)C(Cl)(Cl)Cl)c1cccc(Cl)c1 (stereo not drawn)	-3	75*	-4.9	2.9	.	-10	-4	0.0
53	Cc1ccc2oc(-c3cccc(NC(=S)NC(=O)/C=C/c4ccco4)c3)nc2c1	-6	100*	-6.3	3.1	.	-4	0	-0.1
54	O=C(/C=C/c1ccccc1Cl)Nc1ccncc1	1	100*	1.9	0.6	.	-8	-4	-0.4
55	O=C(O)c1c[nH]c(=S)n1-c1ccc(F)cc1	3	-2	1.3	0.8	.	-5	-1	-0.3
56	Cc1ccc2nc(NC(=O)COC(=O)c3ccc(Br)o3)sc2c1	0	-8	1.4	1.8	.	0	0	0.3
57	CCCC(=O)Nc1sc(C)c(-c2ccc(C(C)CC)cc2)c1C#N (stereo not drawn)	-5	3	-8.1	3.9	.	-9	1	-0.3
58	c1ccc(-c2n[nH]c(-c3ccccc3)c2-c2nc3ccccc3[nH]2)cc1	-1	92*	0.3	0.1	.	21	-5	-0.1
59	Cc1ccc(NC(=O)Cn2nc(C)c3ccccc3c2=O)cc1F	-3	-8	-1.5	3.2	-2	-9	-7	0.0
60	COc1ccc(OCc2nnc(SCC(=O)N3c4ccccc4Sc4ccc(Cl)cc43)o2)cc1	2	32	4.0	4.8	.	1	-3	-0.2
61	CC(NC(=O)OC1CCCCC1)N1C(=O)C2C3C=CC(C3)C2C1=O (stereo not drawn)	-2	-1	1.6	0.4	-21	-7	-4	0.4
62	Cc1ccc(CS(=O)(=O)CCC(=O)N2CCOCC2)cc1	-1	8	2.8	1.3	24	-7	-3	-0.3
63	Cc1cccc(Oc2ncnc3onc(C)c23)c1C	-2	-7	15	0.5	.	-5	0	0.1
64	Cc1ccccc1C(=O)Nc1ccccc1-c1nnn(CC(=O)Nc2ccc3c(c2)OCCO3)n1	3	1	-5.1	1.1	.	-2	-10	0.2
65	CC(=O)NC1(NC(C)=O)CCN(C)C(c2ccccc2)C1C (stereo not drawn)	-7	-6	1.2	1.6	-33	-4	2	-0.1
66	CCCCN(C(=O)c1c(C)[nH]c(C(=O)OCC)c1C)c1ccccc1	3	23	-2.1	0.1	-33	-9	-1	0.1
67	O=C1NC(=O)C(c2ccccc2)(c2ccccc2)N1	-6&-5&0	-1&2&-6	-1.1&0.1&0.6	0.4&0.9&3.0	-3&-26	0&-7&-11	4&0&-4	-0.3&-0.5&-0.3
68	O=C(/C=C/c1ccc(F)cc1)NCCC1=CCCCC1	3	-2	-0.1	0.0	.	-14	-7	0.8
69	CCCCn1nc2cc(C(=O)NCc3ccc(OC)cc3)ccc2c1OCC	-4	8	0.8	-1.3	.	-9	-2	0.3

Screening results: PubChem, several laboratories

These rows are one share of the data; count on the stated rates, not on these rows.
